# Assay outcomes: PubChem BioAssay, several laboratories
# ugtP null kill – growth inhibition of ugtP-null S. aureus, primary screen, RN4220 ugtP deletion, OD600. 330,000 tested, 0.54% active. growth inhibition, % (no concentration beside the values). AID 1259309, 2017. 16 h; some inactives read as strong as hits;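 active = z-score under -3 and OD600 up to 0.15 on both plates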;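 note: plate controls were untreated wells for no effect and antibiotic for full effect; wells of about 80 µL received 100 nL stock; the first replicate is given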
# Autofluor counter – flagged as autofluorescent in microsphere protease counterscreen; compound autofluorescence counterscreen, microsphere flow cytometry; hits give high values; fluorescence intensity (test concentration not listed); 360,000 tested, 3.1% active; AID 624483;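 active = at least 3 SD above the mean of all compounds, about 16000 in these data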;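 note: 100 nL of 1 mM stock went into each well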
# PrP 5UTR inh – inhibition of PrP 5' UTR reporter expression; inhibition, % (test concentration not listed); 340,000 tested, 0.35% active; cell-based PrP 5' UTR mRNA reporter, plate reader;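 active = every replicate at 50% or more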;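 note: 0 = median of the neutral control wells; tested in H4 reporter cells; numbers are from one replicate; inactives centre near -14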
# Mtb hypoxia inh – PubChem AID 1159583; M. tuberculosis hypoxia-regulated fluorescent reporter, fluorescence; fluorescence inhibition, % (test concentration not listed); 300,000 tested, 0.1% active;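 active = 35 to 45% if threefold the growth effect, above 45% if 1.5-fold the growth effect; inactive = the rest, general growth blockers included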;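 note: wells of about 50 µL received 100 nL stock; 0% = vehicle wells and 100% = reference inhibitor wells; whole bacteria with a GFP reporter of the hypoxia response; strong numbers were not always called active; many hits fall short of the cut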
# BJeLR viability – MLPCN primary cell-based screen for lethality selective to Ras in HRASV12 cells; BJeLR (HRASV12) viability, CellTiter-Glo ATP luminescence, 48 h; reference of the scale not given here; inhibition, % (no concentration beside the values); 300,000 tested, 0.17% active; AID 1554, 2009;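 active = replicate mean above 50%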;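 note: 50 nL library stock added to about 25 µL; numbers are from one replicate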
# RN4220 kill – growth inhibition of S. aureus RN4220, primary screen, OD600. 16 h. inhibition, % (no concentration beside the values). 330,000 tested, 0.33% active. AID 1259311, 2017;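 active = z-score of -3 or lower and OD600 up to 0.18 on both plates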;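 note: plate controls were untreated cells for no effect and reference antibiotic for full effect; stock transfer was 100 nL into about 80 µL; one replicate is shown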
# Mtb hypoxia inh growth – second read-out of Mtb hypoxia inh, no call of its own (marks repeat the call); growth inhibition, %; measured here: M. tuberculosis growth (absorbance);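 0% = vehicle and 100% = reference antibiotic; read after six days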
# * = called active by the depositor; / = no result given.
SMILES,ugtP null kill,Autofluor counter,PrP 5UTR inh,Mtb hypoxia inh,Mtb hypoxia inh growth,BJeLR viability,RN4220 kill
Cc1c(/C(O)=C2/C(=O)C(=O)N(CCN(C)C)C2c2ccc(C(C)C)cc2)cnn1-c1ccccc1 (stereo unspecified),8,/,-17,1,7,3,4.3
O=S(=O)(c1cccc(C(F)(F)F)c1)N1CCN(c2ccccc2)CC1,-9,10817,0,-3,7,4,-5.8
Nc1nonc1-n1nnc(C(=O)N/N=C/c2ccoc2)c1CSc1ccccc1,/,4255,-34,/,/,-1,/
COc1ccc(C(CC(=O)N2CCC3(CC2)OCCO3)NS(=O)(=O)c2ccc(C)cc2)cc1 (stereo unspecified),4,2622,-22,/,/,-7,2.5
CS(=O)(=O)c1ccc2nc(NC(=O)CN3CCC(Cc4ccccc4)CC3)sc2c1,1,3569,-16,-7,5,1,0.8
Cc1occc1C(=O)Nc1ccc(S(=O)(=O)N2CCN(C)CC2)cc1,2,11107,-1,3,5,-2,3.9
COc1ccc(/C=N/N2CCN(c3ccc(Cl)cc3)CC2)cc1O,/,3773,-3,/,/,-11,/
Cc1ccc(S(=O)(=O)NCC(=O)N(CC(=O)NCc2ccco2)Cc2ccc(F)cc2)cc1,6,6271,-7,8,7,-1,3.7
COC(=O)C=CC1=CN(Cc2ccccc2)CCC1=O,4,/,/,15,4,/,10
O=C(Nc1cccc2cccnc12)c1ccccc1Br,4,4506,-30,-1,20,-4,1.4
COCCc1ncc(CN2CCC(C(=O)Nc3cccc(-c4cscn4)c3)CC2)cn1,3,4680,-5,7,-7,3,0.6
CCOC(=O)/C(=N/Nc1ccc(OC)cc1)N1CCCc2ccccc21,/,3822,-8,/,/,-10,/
O=C(N/N=C\c1ccoc1)c1ccco1,/,4398,-11,/,/,9,/
O=[N+]([O-])c1cccc(C(=Nc2ccccc2)NO)c1,1,2540,-12,5,6,4,4.9
CCOC(=O)c1cnn(-c2cc(C)nc3c(-c4ccccc4)cnn23)c1N,4,3620,-12,/,/,-2,11
CC1CCCCN1C(=O)CSc1nc2ccccc2[nH]1 (stereo unspecified),-3,3350,-17,4,7,-3,5.8
O=C(CSc1ccccn1)Nc1cccc(NC(=O)CSc2ccccn2)n1,5,7768,-16,0,2,-7,13
COc1ccc(OCC(=O)NS(=O)(=O)c2ccccc2)cc1,4,3456,-24,6,-1,-5,4.4
Cc1cc(C(C)(C)C)oc1C(=O)N(CC(=O)NC1CCCC1)c1c(C)cccc1C,1,11705,-22,7,0,-6,-27
Cc1cc(C(C)(C)C)oc1C(=O)N(CC(=O)NC1CCCC1)Cc1ccccc1Cl,-8,10899,-11,10,8,-5,-4.6

# In the list so far, these have an aryl thioether with sulfur outside any ring:
SMILES,ugtP null kill,Autofluor counter,PrP 5UTR inh,Mtb hypoxia inh,Mtb hypoxia inh growth,BJeLR viability,RN4220 kill
Nc1nonc1-n1nnc(C(=O)N/N=C/c2ccoc2)c1CSc1ccccc1,/,4255,-34,/,/,-1,/
CC1CCCCN1C(=O)CSc1nc2ccccc2[nH]1 (stereo unspecified),-3,3350,-17,4,7,-3,5.8
O=C(CSc1ccccn1)Nc1cccc(NC(=O)CSc2ccccn2)n1,5,7768,-16,0,2,-7,13

# New compounds follow:
SMILES,ugtP null kill,Autofluor counter,PrP 5UTR inh,Mtb hypoxia inh,Mtb hypoxia inh growth,BJeLR viability,RN4220 kill
Cc1ccccc1S(=O)(=O)Oc1ccccc1C(=O)Oc1ccccc1,1,2669,-15,11,12,-4,-12
FC(F)Sc1ccc(NC(=S)NCc2ccccc2)cc1,-4,2134,-35,6,12,0,-7.0
Cc1cc(N/C=C\C(=O)c2ccc(Cl)c(Cl)c2)no1,4,2305,-84,/,/,1,1.9
O=S(=O)(c1ccccc1)c1cnn(-c2ccccc2)c1-c1ccc(F)cc1,9,8531,-11,7,7,5,11
CC1CC(O)c2cc(Cl)ccc2N1 (stereo unspecified),-2,/,/,8,4,/,6.7
Cc1cccc(N2CCN(C(=O)c3cccc(N4CCCC4=O)c3)CC2)c1C,9,5444,-15,4,3,0,4.5
Cc1oc(-c2ccc(F)cc2)nc1CN(Cc1ccccn1)CC1CCCO1 (stereo unspecified),-3,2658,-12,10,6,1,8.3
Cc1ccc(N2CCN(N=C/C=C/c3ccccc3)CC2)cc1,2,/,/,6,3,/,6.5
CCOC(=O)CNC(=O)CNC(=O)C(Cc1ccc(N(CCCl)CCCl)cc1)NC(C)=O (stereo unspecified),7,4468,-2,4,18,6,-1.5
Cc1onc(-c2ccccc2Cl)c1C(=O)NCCCN1CCOCC1,1,3696,-29,7,9,0,5.1
O=C(CCl)NN=C(c1ccccc1)c1ccccc1,4,4778,-20,18,34,-10,2.6
Cc1cc(=O)[nH]c(N2CCCNCC2)n1,10,3112,-5,-5,1,3,2.6
COc1ccc(Br)cc1CN(C)C(=O)c1ccc2c(c1)NC(=O)C(C)S2 (stereo unspecified),2,4604,-16,1,5,10,0.6
O=C(NNC(=O)c1ccc([N+](=O)[O-])o1)c1ccccc1,99*,2182,0,/,/,-12,13
CC(=O)c1ccc(OC(=O)N(C)c2ccccc2)cc1,5,2473,-54,13,4,1,5.1
COc1ccc(Cl)cc1C(=O)Nn1c(C)nc2ccccc2c1=O,-9,11313,-18,2,-1,-1,18
CCC1=C2CCC3C(=O)N(C)C(=O)C3C2[C@@]2(Cc3ccccc3)C(=NCCOC)OC(=O)N2C1=O (stereo partly specified),-2,/,/,-3,2,/,9.3
Cc1cc(C)c2nc(N3CCCN(C(=O)c4ccco4)CC3)c(C#N)cc2c1,-19,9740,-31,12,7,-8,15
Cc1cc(CNC(=O)COC(=O)C2CC3CCCC(C2)C3=O)cc(C)c1O (stereo unspecified),8,3508,1,-2,-2,/,8.7
CCc1cccc(C)c1NC(=S)NCC1CCN(c2ccc(OC)cc2)C1 (stereo unspecified),1,4362,-6,0,8,7,-0.2
Cc1ccc(C(=O)NCC(=O)N2CCCN(S(=O)(=O)c3ccc(C)cc3)CC2)cc1,6,/,-20,1,0,/,2.9
C/C(=N\NC(=O)Cn1c(C)nc2ccccc21)c1cccs1,/,10216,-3,/,/,-3,/
CCOC(=O)N1CCN(CCC(=O)Nc2ccccc2)CC1,6,3997,11,8,-8,5,-0.3
O=C(O)c1cc(NN=Cc2ccc(OCc3ccccc3)cc2)ccc1Cl,8,/,/,12,6,/,1.3
O=C(CCC(=O)c1ccccc1)Nc1cccnc1,-1,3073,-18,/,/,9,-0.2
CCOc1cc(N2CCOCC2)c(OCC)cc1NC(=O)CN1C(=O)NC(CC)(c2ccc(F)cc2)C1=O (stereo unspecified),-4,3113,7,-2,3,/,1.4
CC1CCN(C(=O)CSc2nc3c(cnn3-c3ccccc3)c(=O)[nH]2)CC1,9,6373,-4,1,-2,-4,7.2
OCCc1ccc(-c2ccc(Cl)cc2)o1,-2,3395,-30,/,/,5,2.5
COc1ccc(S(=O)(=O)Cc2ccc(C(=O)NCc3ccccn3)o2)cc1,7,5311,-28,/,/,-12,3.5
O=C(CN1CCOCC1)Nc1c(Cl)cc(Cl)cc1Cl,8,3334,-11,16,3,25,6.0
CCCCC(=O)Nc1c2c(nn1-c1cccc(C)c1C)CS(=O)(=O)C2,-2,3757,-4,-4,3,-14,-1.9
C(/C=C/c1ccccc1)=NN1CCN(Cc2ccccc2)CC1,11,/,/,8,0,/,5.4
Cc1nc(C(=O)NCC(=O)c2ccc(Cl)cc2)c(C(F)(F)F)o1,-10,6109,-23,2,8,-4,-1.4
Cc1cccc2c(N)c3c(nc12)CCCC3 (tested in a mixture with another compound),-2,4202,-7,8,3,/,3.7
O=C(COc1ccc2c(c1)OCO2)Nc1nncs1,-1,5582,-18,0,2,6,3.1
CCN(C(=O)CSc1cc(C)c2ccccc2n1)c1c(N)n(Cc2ccccc2)c(=O)[nH]c1=O,6,4520,-2,2,5,1,7.3
CCN(CC)CC#CCC(O)(c1ccccc1)C1CCCCC1 (stereo unspecified),-4,5357,-33,14,14,3,4.6
N#CC(Nc1ccccc1)c1ccccc1OCc1ccccc1 (stereo unspecified),-2,5871,-50,4,7,-3,12
CCN(CC(=O)Nc1ccc2c(c1)OCCO2)C(=O)CN1C(=O)NC(C)(c2ccc(C)cc2)C1=O (stereo unspecified),4,6543,-1,0,-3,/,1.9
CC(C)C(c1nnnn1Cc1ccc2c(c1)OCO2)N1CCN(C)CC1 (stereo unspecified),7,9378,-15,14,12,8,7.2
Cc1nc(NC(=O)c2ccccc2[N+](=O)[O-])sc1C(=O)N(C)C,4,2387,-13,-6,3,-6,5.0
O=c1[nH]c(Nc2ccc3c(c2)OCCO3)nnc1Cc1ccccc1,-4,4063,-11,-14,6,-5,-3.7
Fc1ccc(-[n+]2nc(Nc3ccccc3)sc2-c2c(Cl)cccc2Cl)cc1,/,3737,-24,/,/,10,/
O=C(C1=C[C@H](c2ccc3c(c2)OCO3)C[C@H](OCc2ccc(CO)cc2)O1)N1CCOCC1,/,3819,22,/,/,-5,/
CCOP(=O)(OCC)C(C#N)=C1SCN(c2ccccc2)CS1,-4,3088,-8,7,7,1,3.0
CCCOC(=O)C1=C(C)NC2=C(C(=O)CC(C)(C)C2)C1c1cccnc1 (stereo unspecified),5,2711,-14,14,1,2,0.5
C#CCNC(=O)C1=C[C@@H](C2CC2)C[C@@H](OCc2ccc(CO)cc2)O1,/,4484,-8,/,/,-7,/
CCN(CC)C(=S)SCC(=O)Nc1ccc(S(N)(=O)=O)cc1,-67,4165,7,7,11,-6,16
CC(NC(=O)c1ccco1)c1ccc(-n2ccnc2)cc1 (stereo unspecified),-4,5912,-6,-5,12,-2,0.6
Cc1cc(C(=O)NN=Cc2cccnc2)n[nH]1,1,/,/,12,8,/,5.1

# Part of the list above, with two lines to a compound.
# Second line of a record: ugtP null kill, Autofluor counter, PrP 5UTR inh, Mtb hypoxia inh, Mtb hypoxia inh growth, BJeLR viability, RN4220 kill
- Cc1oc(-c2ccc(F)cc2)nc1CN(Cc1ccccn1)CC1CCCO1 (stereo unspecified)
→ -3, 2658, -12, 10, 6, 1, 8.3
- Cc1ccc(N2CCN(N=C/C=C/c3ccccc3)CC2)cc1
→ 2, /, /, 6, 3, /, 6.5
- CCOC(=O)CNC(=O)CNC(=O)C(Cc1ccc(N(CCCl)CCCl)cc1)NC(C)=O (stereo unspecified)
→ 7, 4468, -2, 4, 18, 6, -1.5

# Next section.
SMILES,ugtP null kill,Autofluor counter,PrP 5UTR inh,Mtb hypoxia inh,Mtb hypoxia inh growth,BJeLR viability,RN4220 kill
Cc1ccc(C(=O)C(C)OC(=O)Cc2n[nH]c(=O)c3ccccc23)cc1 (stereo unspecified),2,6005,-9,6,7,3,3.6
O=C(OC1CCCCC1)c1cc2ccccc2oc1=O,12,2973,-61,11,1,-3,12
CN1C(=O)C(C)(C)c2cc(S(=O)(=O)N3CCCC3C(=O)NCc3ccccc3Cl)ccc21 (stereo unspecified),5,5882,-22,/,/,-6,2.3
O=C(O)CSCC(=O)N1CCN(c2ccnc3cc(Cl)ccc23)CC1,1,2899,-12,-12,-11,0,2.6
CCC(C(=O)O/N=C(\N)c1cccc(C)c1)c1ccccc1 (stereo unspecified),43,3921,-42,13,-3,4,-3.5
COc1cccc(C(C(=O)NC(C)(C)C)N(C(=O)CCC(=O)Nc2cc(C)on2)C(C)C)c1OC (stereo unspecified),-4,4250,-6,4,0,1,0.4
CC1CN(C(=O)COC(=O)c2ccc(N)c([N+](=O)[O-])c2)CC(C)O1 (stereo unspecified),2,1941,-14,7,3,-5,5.6
Cc1nnc(NC(=O)CSc2ccccc2N)s1,5,3857,-27,7,-5,-13,1.9
O=C(O)c1ccc(Cn2cnc3cccnc32)cc1,7,4349,-9,-4,-1,-3,4.5
O=C(Nc1ccc(Cl)c(S(=O)(=O)N2CCOCC2)c1)c1cc2ccccc2oc1=O,-4,3281,-53,9,8,/,4.2
COc1ccc(N2CC(C(=O)NCCS(=O)(=O)N3CCN(c4ccccc4)CC3)CC2=O)cc1 (stereo unspecified),-1,5879,0,-7,3,4,1.2
Cn1c(=O)c2c(nc(Cl)n2CC(=O)NC2(C#N)CCCCC2)n(C)c1=O,3,5836,-29,2,2,-3,3.0
O=C1[C@H]2[C@@H](c3ccc(Cl)cc3)N3C(=O)N(c4cccc(F)c4)C(=O)[C@@]3(Cc3ccccc3)[C@H]2C(=O)N1C1CCCCC1,/,3571,-29,/,/,-1,/
Cc1ccc(S(=O)(=O)Nc2ccccc2F)cc1C(=O)NCCCN1CCCC1=O,3,22774*,-6,5,-7,2,1.4
C/C(=N/NC(=O)c1nnn(-c2nonc2N)c1-c1ccccc1)c1ccncc1,/,3366,-11,/,/,-12,/
COc1ccc(S(=O)(=O)Nc2cccc(C(C)=O)c2)cc1Br,-5,4184,-8,0,-1,-14,1.7
